Screens as filed in PubChem BioAssay.
RanGTP-Imp inh: inhibitors of RanGTP-importin-beta interaction, primary screen, biochemical, FRET, CFP-Ran, YFP-importin-beta, homogeneous | cell-free CFP-Ran/YFP-importin-beta FRET ratio | inhibition, % (test concentration not listed) | actives 1.1% (n = 300,000) | AID 2216;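 active means most replicates above 15%; inconclusive means exactly half above 15%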;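 further: 0% = DMSO wells and 100% = Ran loaded with GDP instead of GTP; wells of about 40 µL received 100 nL stock; the first replicate is given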
Beta apoptosis: beta cell apoptosis inhibition. INS-1E cytokine-induced death, ATP luminescence, 48 h; percent of positive-control rescue, neutral wells zero. protection from apoptosis, % (no concentration beside the values). actives 0.8% (n = 300,000). AID 435005;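 active means all replicates at 75% or more, or half of them and the mean; inconclusive means half reach 75% but not the mean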;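 further: 0% = cytokine-treated negative control wells and 100% = positive control rescue; higher means more ATP so stronger rescue from cytokine killing; wells of about 40 µL received 100 nL stock; the first replicate is given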
T cruzi inh: T. cruzi replication inhibition. actives 1.4% (n = 300,000). inhibition, % (concentration not given with the values). T. cruzi beta-gal in NIH3T3, luminescence, 90 h;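 active means mean inhibition across valid replicates above about 55%, limit read from the data; inconclusive means mean below that limit but half or more replicates reach it; inactive means mean below it, under half of replicates reach it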;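 further: signal also drops with host cell toxicity which is not excluded here; 0% = plate median of DMSO wells and 100% = zero luminescence signal; higher percent means less beta-gal luminescence so fewer parasites; stock transfer was 50 nL into about 50 µL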
A1 inh: inhibitors of the anti-apoptotic protein A1, read as caspase activation; MEF A1-2A-BIM cells, Caspase-Glo 3/7 luminescence, 3 h; percent of clofoctol response, vehicle zero; caspase activation, % (no concentration beside the values); actives 0.066% (n = 330,000);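 active means over half of replicate activation scores above 10%, or exactly half above 10 with the replicate mean above 10; inconclusive means replicate mean below 10 yet half the replicates above 10; inactive means over half of replicates below 10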;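 further: wells of about 30 µL received 50 nL stock; many hits fall short of the cut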
LANA-H2A inh: blocks KSHV LANA binding to histone H2A/H2B. Q9QR71. cell-free LANA-H2A/H2B peptide, fluorescence polarization. inhibition, % (test concentration not listed). actives 0.6% (n = 320,000). AID 2629; in the data active means inhibition mostly above about 10%, no sharp cut-off; inactive means mostly below about 6.7%;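 further: stock transfer was 7.5 nL into about 10 µL; 0% = median of vehicle wells and 100% = median of positive control wells; one replicate is shown; the record names a cut of 25% in any replicate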
B2AR ag: human beta-2 adrenergic receptor agonism by FAP | actives 0.43% (n = 340,000) | Am2.2-beta2AR cells, FAP receptor internalization, flow cytometry; reference of the scale not given here | P07550 | response, % (no concentration beside the values);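 active means response above a set limit, near 3 SD of response in nonfluorescent compounds, cut at about 42% in these data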;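 further: stock transfer was 100 nL into about 11 µL; a reference agonist was the positive control; negative values mostly stem from fluorescent compounds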
Target sequence (P07550 whole entry, looked up): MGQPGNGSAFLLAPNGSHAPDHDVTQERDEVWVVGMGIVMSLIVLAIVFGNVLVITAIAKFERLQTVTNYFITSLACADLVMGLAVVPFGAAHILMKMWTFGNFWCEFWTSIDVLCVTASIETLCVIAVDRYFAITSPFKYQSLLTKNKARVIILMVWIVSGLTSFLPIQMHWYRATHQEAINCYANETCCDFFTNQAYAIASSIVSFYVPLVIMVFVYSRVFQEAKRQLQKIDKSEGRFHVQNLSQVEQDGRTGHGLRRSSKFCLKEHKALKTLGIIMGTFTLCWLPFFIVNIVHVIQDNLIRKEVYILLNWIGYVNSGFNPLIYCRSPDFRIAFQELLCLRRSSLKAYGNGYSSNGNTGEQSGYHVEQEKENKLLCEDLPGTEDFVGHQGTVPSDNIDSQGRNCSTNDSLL
Calb FLC: affects C. albicans growth with fluconazole; growth inhibition, % (test concentration not listed); actives 0.57% (n = 300,000); C. albicans CaCi-2 (fluconazole-resistant clinical isolate) + fluconazole, Alamar Blue growth, 48 h;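 active means most replicates above 75%; inconclusive means exactly half above 75%; inactive means most below 75%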;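 further: all wells also contain fluconazole at 8 µg/ml as a sub-toxic cotreatment; 0% = median of DMSO wells and 100% = median of geldanamycin control wells; wells of about 8 µL received 7.5 nL stock; the first replicate is given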
UCH37 inh: inhibitors of human deubiquitinating enzyme UCH37 | inhibition, % (test concentration not listed) | Q9Y5K5 | purified proteasome/UCH37, Ub-AMC cleavage fluorescence | AID 588478 | actives 0.33% (n = 330,000);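 active means mean of two replicates above 20%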;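 further: 0% = compound-free wells with enzyme and 100% = wells lacking proteasome; stock transfer was 100 nL into about 20 µL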
Target sequence (Q9Y5K5 whole entry, looked up): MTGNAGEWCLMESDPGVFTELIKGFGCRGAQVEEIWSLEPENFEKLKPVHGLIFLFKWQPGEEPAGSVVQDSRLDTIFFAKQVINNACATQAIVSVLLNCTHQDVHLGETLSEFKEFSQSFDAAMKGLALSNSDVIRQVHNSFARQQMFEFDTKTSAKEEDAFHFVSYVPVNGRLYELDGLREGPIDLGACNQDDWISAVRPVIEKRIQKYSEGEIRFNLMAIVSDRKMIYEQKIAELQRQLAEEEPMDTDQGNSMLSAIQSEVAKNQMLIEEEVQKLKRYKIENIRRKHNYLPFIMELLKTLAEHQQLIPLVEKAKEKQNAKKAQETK
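Signal – fluorescence, ex 355 nm, em 460 nm · System – Proteasome-bound UCH37 · Input – 0.15 nM proteasome as dispensed · Timing – 30 min preincubation with enzyme, 25 min cleavage at room temperature · Read-out basis – percent inhibition of cleavage signal versus uninhibited and no-proteasome wells · Medium – Tris-HCl pH 7.4 with ATP-MgCl2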
* = called active by the depositor; ? = inconclusive; . = no result given; + = active, no number.

#	Structure	RanGTP-Imp inh	Beta apoptosis	T cruzi inh	A1 inh	LANA-H2A inh	B2AR ag	Calb FLC	UCH37 inh
1	CCOC(=O)CNC(=O)Cn1cnc2c(nnn2-c2cccc(OC)c2)c1=O	4.4	-7	-13	1.6	2.1	-3	0	3.2
2	CCN(CC(=O)Nc1ccccc1OC)CC(=O)Nc1ccccc1-c1ccccc1	.	9	.	0.5	-0.6	-3	-1	1.8
3	O=C(Oc1ccc2ccccc2c1)c1cncc(Br)c1	0.6	-5	-6	-0.1	-2.2	2	7	0.8
4	Cc1ccc(NC(=O)CCN2C(=O)C3CCCCC3C2=O)cc1[N+](=O)[O-] (stereo not given)	0.2	-6	-12	0.1	1.1	1	-2	0.4
5	COc1ccc(CC(=O)Oc2ccc(Br)cc2F)cc1S(=O)(=O)N1CCOCC1	6.7	-6	-7	-0.1	-6.8	-1	11	0.0
6	O=c1c2ccccc2nc(SCc2cn3ccsc3n2)n1-c1ccc(F)cc1	4.0	2	11	-1.4	3.9	-8	33	-1.4
7	O=C(c1cccs1)N1CCCc2ccccc21	1.1	-2	-3	1.2	0.8	-4	2	1.7
8	CC1C(=O)N2CCCc3cc(S(=O)(=O)N(C)Cc4ccccc4)cc1c32 (stereo not given)	0.3	0	-4	-3.5	3.0	12	-13	0.2
9	Cc1c(C)c2ccc(OCC(=O)N3CCOCC3)c(C)c2oc1=O	?	3	-6	0.5	+	-3	17	-84
10	Cc1ccc(NC(=O)COc2ccccc2C(=O)NCCN(C)C)cc1	1.3	-6	-2	-0.4	3.4	.	22	-17
11	C=CCn1c(SCc2cccc(OC)c2)nnc1-c1ccncc1	0.0	-1	-4	-0.1	0.3	0	14	2.5
12	O=C(Nc1cc(C(F)(F)F)ccc1N1CCCCC1)c1cccc([N+](=O)[O-])c1	?	11	28	-0.1	1.2	3	-20	2.3
13	CSCCC(=O)N1CCCC(CNC(=O)c2ccc(-c3ccccc3)cc2)C1 (stereo not given)	9.0	3	0	0.1	-3.8	-4	5	0.9
14	O=C(c1cccs1)N1CCC(c2nc(-c3ccc(S(=O)(=O)N4CCOCC4)cc3)no2)CC1	0.4	3	-9	-0.8	-2.7	4	-3	1.7
15	Cc1cccc(OCC(=O)Nc2ccccc2F)c1	0.0	-2	-7	-5.6	6.1	-2	-29	4.6
16	CC(C)(C)OC(=O)N1CCC(Cc2cc(-c3ccccc3)no2)(C(=O)O)CC1	?	-8	-13	3.4	2.0	1	-8	-0.7
17	O=C(NCCc1ccccc1)C1CCC(=O)N(Cc2ccc(Cl)cc2)C1 (stereo not given)	-0.5	-7	10	0.2	0.6	14	-2	-0.8
18	Cc1ccccc1NC(=O)/C(=C/c1ccco1)c1ccccc1	2.0	3	14	1.5	0.9	-12	-28	4.5
19	O=C(NC(=O)N1CCSCC1)c1c(Cl)cccc1Cl	-3.7	0	-13	-0.3	2.0	-5	3	2.0
20	Cc1ccccc1C(=O)Nc1cccc(C(=O)Nc2ccccc2C(=O)O)c1	2.2	-3	-10	-0.9	-8.7	0	-2	4.4
21	CCOc1ccccc1/C=N/NC(=O)C[n+]1ccccc1	.	-7	.	1.1	0.6	-3	.	.
22	CCN(Cc1ccccc1)S(=O)(=O)c1ccc(C(=O)N(CCCN(C)C)c2nc3c(F)cccc3s2)cc1	1.7	0	31	0.7	-9.0	16	-2	0.8
23	CCC(C)NCC(=O)Nc1ccc([N+](=O)[O-])cc1C(=O)Nc1ccccc1F (stereo not given)	-1.4	-3	-8	-0.3	-0.9	10	0	0.2
24	COC(=O)c1c(NC(C)=O)sc(C(=O)Nc2ccccc2C)c1C	-2.7	4	-8	0.0	10	-24	-7	3.6
25	O=C(COC(=O)COc1ccccc1[N+](=O)[O-])Nc1ccc2c(c1)OCO2	.	-4	.	0.9	-1.1	1	.	4.7
26	COCC(C)n1c(C)cc(C(=O)CSc2ccc(NC(C)=O)cc2)c1C (stereo not given)	-0.3	-4	5	-1.1	-3.3	1	0	5.9
27	COc1ccccc1C(=O)COC(=O)CSCC(=O)Nc1cc(C)on1	7.5	0	-6	0.1	-3.1	-7	0	-2.3
28	COc1cc(CNC2CCCCCCC2)c(Br)cc1OCCO	-3.0	-11	6	-0.2	-0.7	-4	-6	5.5
29	O=C(Cc1ccc(Cl)cc1)NCc1nc(-c2ccccc2)no1	0.7	-8	-5	0.4	0.1	-3	-2	2.7
30	CCOc1cc(NC(=S)NCC2CCCO2)c(OCC)cc1NC(=O)CC(C)C (stereo not given)	2.0	-2	5	-1.2	-18	-4	46	4.0
31	CC12CCC(C(=O)Nc3nc4ccccc4s3)(OC1=O)C2(C)C (stereo not given)	-2.5	0	11	1.2	11	-3	0	-1.5
32	Cc1ccsc1C(=O)NN=C1CCCCCC1	0.6	0	1	0.6	-2.1	4	-4	2.8
33	COc1ccc(Cn2nnnc2C(CC(C)C)N2CCC(C(N)=O)CC2)cc1 (stereo not given)	5.3	3	0	-0.1	-1.2	0	-4	3.6
34	Cc1nc2ccccc2n1CC(=O)NC1CCCCCC1	-4.0	12	7	-0.1	-0.8	-9	-3	-0.3
35	COC(=O)[C@@]12CCCN1[C@H](c1ccc(-c3ccc(OC)cc3)cc1)[C@@H]1C(=O)N(C)C(=O)[C@@H]12	-3.3	-6	-3	0.4	4.6	-1	2	-0.2
36	COc1ccc(NCc2ccccc2[N+](=O)[O-])cc1OC	6.5	6	30	-0.5	4.6	-8	-2	6.7
37	Cc1cc(C)cc(NC(=O)C2CCCN(c3ncccn3)C2)c1 (stereo not given)	-2.2	3	1	1.0	5.4	-8	-5	2.3
38	CCOC(=O)c1c(CSC(=N)N)n(-c2ccccc2)c2cc(Br)c(OC(C)=O)cc12	1.3	-3	11	0.2	-2.0	20	14	.
39	CC1CCCN(S(=O)(=O)c2ccc(S(=O)(=O)N3CCC4(CC3)OCCO4)cc2)C1 (stereo not given)	1.1	1	3	0.3	0.5	4	-12	4.3
40	C=C(C)c1cccc(C(C)(C)NC(=O)NCC2COCCO2)c1 (stereo not given)	0.0	-3	-8	-0.5	6.3	3	7	0.9
41	COc1ccc(NC(=O)c2ccc(N3CCCC3=O)cc2)cc1Cl	.	3	.	-6.5	2.3	-3	.	-5.0
42	O=C1CCc2cc(NS(=O)(=O)c3cc(F)ccc3F)cc3c2N1CC3	0.0	-2	-3	0.2	0.5	-4	3	-1.5
43	CNS(=O)(=O)c1ccc(NC(=O)c2cnn3c(C(F)F)cc(-c4ccccc4)nc23)cc1	1.4	22	2	0.8	2.2	18	-1	-0.7
44	CC(C)N(CCn1c(SCC(=O)Nc2cccnc2Cl)nc2ccccc2c1=O)C(C)C	.	-1	.	1.6	9.9*	-27	.	.
45	O=C(O)/C(=C\c1cn(-c2ccccc2)nc1-c1cccnc1)NC(=O)c1ccccc1	?	0	-3	0.6	-1.6	-5	1	3.2
46	CN(CC(=O)Nc1cccc(F)c1)C(=O)CN1C(=O)NC2(CCCC2)C1=O	.	-2	.	0.0	-7.4	-3	.	2.5
47	Cc1cccc(NC2=C(Cl)C(=O)OC2OC(=O)c2ccco2)c1 (stereo not given)	-2.1	-5	-28	0.3	-0.4	2	10	1.6
48	O=C(O)c1ccccc1/C=N/Nc1ccc(S(=O)(=O)N2CCCC2)cc1[N+](=O)[O-]	-1.2	-7	4	-0.2	1.0	-3	1	.
49	CC(Sc1nnc(C2CC2)n1N)C(=O)NC1CCCCC1C (stereo not given)	?	-8	-4	-0.6	3.7	-6	6	0.8
50	O=C(c1ccc2[nH]c(=O)c(=O)[nH]c2c1)N1CCc2ccccc21	1.4	0	-8	0.6	0.4	-1	3	2.8
51	O=C(O)CSc1ncnc2scc(-c3ccccc3)c12	2.9	-3	4	-0.5	-1.2	6	-5	4.4
52	CN(CCC#N)C(=O)COC(=O)c1ccc(Cl)cc1O	3.2	-2	-10	0.8	3.3	8	-1	-1.8
53	CCOC(=O)CC1(NC(=O)C2CCC(=O)N(C3CC3)C2)CCCCC1 (stereo not given)	2.9	.	-10	.	.	4	-1	-0.9
54	O=C(c1ccccc1Cc1ccccc1)N1CCN(S(=O)(=O)c2ccccc2[N+](=O)[O-])CC1	-0.7	5	5	0.6	-17	4	10	-0.8
55	O=C(Nc1ccccc1)c1ccc(NCc2ccco2)c(S(=O)(=O)N2CCOCC2)c1	1.7	2	9	-0.4	2.0	5	21	5.0
56	COc1ccc(Cn2c(=O)cc(C)[nH]c2=S)cc1	-0.7	-6	-8	0.4	9.2	3	9	2.8
57	O=C(CCCN1C(=O)/C(=C/c2cccc(Br)c2)SC1=S)N1CCOCC1	-0.6	-4	-1	-1.2	0.6	-4	0	2.4
58	O=C(NCc1ccccc1)/C(NC(=O)c1ccccc1)=C(/Sc1ccccn1)c1ccccc1	-0.5	1	-2	-0.2	2.1	-6	6	-0.3
59	Cc1ccc(CNC(=O)CSc2nc3ccsc3c(=O)n2Cc2ccc(C(=O)O)cc2)cc1	2.4	-1	-4	0.4	2.5	2	23	2.8
60	Cc1cc(C)cc(OCC(=O)NN2C(=O)c3ccccc3C2=O)c1	-0.6	-1	-7	0.6	6.1	8	0	1.0

(continued)
#	Structure	RanGTP-Imp inh	Beta apoptosis	T cruzi inh	A1 inh	LANA-H2A inh	B2AR ag	Calb FLC	UCH37 inh
61	COc1cc(S(=O)(=O)NC(Cc2c[nH]c3ccccc23)C(=O)O)ccc1NC(C)=O (stereo not given)	0.4	-7	-8	1.3	-4.6	3	10	.
62	CON(C)S(=O)(=O)c1cccc(C(=O)NC2CCSc3ccccc32)c1 (stereo not given)	0.6	-1	-2	0.2	-6.0	-3	-3	-2.7
63	CSc1ccccc1NC(=O)COC(=O)c1c[nH]c(=O)[nH]c1=O	?	-7	-1	-0.2	2.2	-4	-2	1.3
64	CCOc1cc(CNn2cnnc2SCC(=O)NC(C)(C)C)ccc1OCC(=O)NC(C)(C)C	0.7	0	-2	0.4	-4.5	-3	-34	1.5
65	O=C(N/N=C/c1cccnc1)c1cc(-c2cccs2)nc2ccccc12	?	2	-21	-0.2	-2.4	-15	-8	.
66	O=C(O)c1ccc(CNC(=O)c2ccccc2NC(=O)c2cccc([N+](=O)[O-])c2)cc1	6.5	.	-8	-2.6	-1.7	-5	3	4.5
67	CN(C)c1nc(N(C)C)nc(N2CC(CCl)OC2=N)n1 (stereo not given)	1.2	.	4	-1.1	-1.3	7	-9	2.8
68	Cc1ccc(NC(=O)CSc2nsc(SCC(=O)Nc3ccc(C)cc3C)c2C#N)c(C)c1	-0.3	9	26	-0.7	9.8	-5	-9	.
69	CCOc1ccc(Cc2n[nH]c(=S)n2N)cc1	8.1	1	7	0.7	1.7	3	13	0.6
70	CC(=O)NC1c2ccccc2C(=O)N1Cc1ccccc1 (stereo not given)	-0.8	.	3	-0.1	-2.7	-1	-5	1.3
71	CCOC(=O)N1CCN(C(=O)c2ccc3nc(N4CCC(C)CC4)sc3c2)CC1	?	6	-2	?	-3.3	3	1	2.0
